Compound activity as filed in PubChem BioAssay.
VACV Venus inh: vaccinia inhibition (Venus reporter) | Vaccinia virus Venus reporter expression, fluorescence | Potency, µM (titrated, usually from 36.5 µM), without a hit: at the highest dose activity change, negative = inhibition, hits mostly inhibitors | 330,000 tested, 0.46% active | AID 720580; active means well fitted inhibition curve with a large enough effect; inconclusive means small, poorly fitted or top-dose-only effect; inactive means no such curve, though single readings can be large or run the other way; tested in A549 cells; note: nearly all actives have a fitted effect of over 30% in size; inactives centre near -10
Vaccinia mCherry: inhibitors of vaccinia virus infection (mCherry reporter signal) | 310,000 tested, 0.63% active | Vaccinia virus mCherry reporter infection, fluorescence; about a quarter of the inactives have no number | Potency, µM (highest dose often 36.5 µM), for the others: at the highest dose activity change, negative = inhibition, most hits filed as inhibitors; active = well fitted inhibition curve with a large enough effect; inconclusive = small, poorly fitted or top-dose-only effect; inactive = no such curve, though single readings can be large or run the other way; tested in A549 cells; note: nearly all actives have a fitted effect of over 35% in size; inactives centre near -10
An asterisk follows results filed as active; i = inactive; ? = inconclusive; nt = no result given; & = joins results of further samples; [ ] = remark or other dose. % is set by controls: 0 for no effect and ±100 for the full control effect; potency is the fitted concentration of half-maximal effect.

SMILES	VACV Venus inh	Vaccinia mCherry
Cc1ccc(C(C(=O)NC2CCCCC2)N(Cc2ccccc2)C(=O)Cc2c[nH]c3ccccc23)o1 (configuration not stated)	?	?
CC(C)N(CCc1ccncc1)C(=O)Nc1ccc(Cl)c(Cl)c1	-17%	-2%
Cn1nc(C(=O)NNC(=O)c2ccc(Cl)cc2)ccc1=O	13%	i
Cc1nc(N2CCN(Cc3ccc(Cl)cc3)CC2)c2oc3ccccc3c2n1	-18%	-19%
CCN(CC(=O)Nc1ccc(OC)c(OC)c1)CC(=O)Nc1ccccc1C(F)(F)F	-16%	i
Cc1cc2c(N=O)c(NO)ccc2[nH]1	?	?
Cc1ccccc1C(=O)Nc1ccc(Br)c(C)n1	-17%	-13%
C=C[C@@H]1c2c(F)cccc2N(S(=O)(=O)c2ccc(C)cc2)[C@H](c2ccc(OC(C)=O)cc2)C1(C#N)C#N	?	?
COc1ccc([C@H]2CC(=O)C=C(c3ccc(Cl)c(F)c3)C2)cc1	-18%	-9%
COCC(C)NC(=O)CCS(=O)(=O)c1nc(-c2ccc(OC)cc2)cc(C(F)(F)F)n1 (configuration not stated)	6%	-10%
CCCc1nnc(SCC(=O)N2CCCC(C)C2)n1CCOC (configuration not stated)	2%	i
CCOC(=O)/C(C#N)=C/Nc1ccccc1NS(=O)(=O)c1cccc(C(C)=O)c1	4%	-17%
CCCCCOC(=O)C1C(c2ccccc2)C(C(=O)O)C1c1ccccc1 (configuration not stated)	-5%	-11%
CC(C)N1CCC2(CC1)N=C(c1ccc3c(c1)OCO3)CC(c1cc(Cl)ccc1O)N2 (configuration not stated)	-29%	nt
O=C1Nc2ccccc2C(=O)N(c2ccc3c(c2)OCCO3)C1C(=O)NC1CC1 (configuration not stated)	-3%	6%
COC(=O)C1=C(c2c(C)noc2C)C[C@@H]2CC[C@H]1N2C(=O)NC1Cc2ccccc2C1	0%	i
CCOc1ccc(NC(=S)N2CCC(NC(=O)C3CCCCC3)CC2)cc1	-1%	-8%
COc1ccccc1C(c1nnnn1CCc1ccccc1)N1CCN(c2ccccc2)CC1 (configuration not stated)	-12%	i
O=C(Cn1c(NCCCO)nc2ccccc21)c1cccc(Br)c1	-2%	-4%
Cc1cccc(N2CCN(C(=O)c3c(C)oc4ncnc(N5CCCCC5)c34)CC2)c1C	-2%	i
Cn1c(CSCCOc2ccccc2)n[nH]c1=S	-13%	-12%
CCOC(=O)C1(Cc2cccc(Cl)c2)CCCN(C(=O)c2cc(C(C)C)nn2C)C1 (configuration not stated)	?	-4%
COc1ccc(CNC(=O)CN(c2ccc(C)cc2)S(=O)(=O)c2c(C)noc2C)cc1	-18%&1%	-7%&-11%
CCN1C[C@@H]2[C@@H]3C(=O)N(C)C(=O)[C@@H]3[C@](CC)(C1=O)N2C(=O)c1ccc(C(F)(F)F)cc1	-5%	i
CCc1ccc(OCCNC(=O)c2ccccc2SCc2ccc(F)cc2)cc1	-25%	?
CCN1CCN(CC(O)COCC2COc3ccccc3O2)CC1 (configuration not stated)	-8%	-3%
NC(=O)CC(NC(=O)c1ccccc1)c1ccc(N2CCCCCC2)c([N+](=O)[O-])c1 (configuration not stated)	-17%	-10%
CC(=O)CC(=O)Nc1ccccc1NC(C)=O	-3%	-14%
C=CCn1c(SCC(=O)NC2CCCCC2)nnc1-c1ccccn1	-18%	-15%
CCCCCN(C(=O)CCC(=O)OCc1ccccc1C(F)(F)F)c1c(N)n(CCCC)c(=O)[nH]c1=O	-4%	-13%
CCOC(=O)c1c(NC(=O)CSc2nnc(-c3ccc(Cl)cc3)o2)sc2c1CCC2	-18%	-14%
Cc1nn2c3ccccc3nc2n(C)c1=O	1%	5%
O=C(c1ccccc1[N+](=O)[O-])N1CCCC(C(=O)N2CCCCCC2)C1 (configuration not stated)	-1%	-15%
CN(C)CCNC(=O)c1onc(CSc2ccc(F)cc2)c1C(=O)NCCN(C)C	-10%	i
CC(/C=N\NC(=O)c1cc(C)oc1C)=C\c1ccccc1	-9%	i
CC(C)CCN(C(=O)C1=COCCO1)c1c(N)n(Cc2ccccc2)c(=O)[nH]c1=O	-20%	-18%
COc1ccc(Cl)cc1CC=NNC(=O)c1ccncc1	-7%	-1%
COc1ccc2c(c1)OC[C@H]1[C@H]2N2C(=O)CN(Cc3ccco3)C(=O)[C@@]2(C)[C@H]1c1ccccc1	-25%	-17%
CCOC(=O)c1c(C)nc2sc3c(=O)n(-c4ccc(OC)cc4)nnc3c2c1-c1ccc(OC)cc1	-7%	nt
CCN1CCN(Cc2nc3c(c(=O)n(C)c(=O)n3C)n2CCc2ccccc2)CC1	3%	4%
O=C(NCCCNC(=O)c1ccco1)c1ccco1	-14%	-17%
CC1C(=O)N(Cc2cn(Cc3ccco3)nn2)CCS(=O)(=O)N1Cc1ccc(-c2cccc(N(C)C)c2)cc1 (configuration not stated)	-21%	-23%
COc1ccc(-c2cc(-c3ccccc3)nc3c2COc2ccc(F)cc2-3)cc1	2%	-5%
CCOC(=O)c1ccc(S(=O)(=O)N2CCC(C(=O)Nc3nnc(C)o3)CC2)cc1	-13%	i
Cc1ccc(NS(=O)(=O)c2ccc3nc(-c4ccccc4)[nH]c3c2)c(Br)c1	-23%	-32%
CCC(=O)N1CCCc2cc(S(=O)(=O)CCC(=O)Nc3ccccc3C)ccc21	0%	-9%
O=C(c1ccc(Cl)cc1Cl)N1CCN(c2ccc(N3CCOCC3)nn2)CC1	-19%	-4%
CCOC(=O)N1CCC(NC(=O)CSc2cc(=O)n(CC)c3ccccc23)CC1	0%	i
CCCCNC(=O)c1onc(CSc2cccc(C)c2)c1C(=O)O	-2%	i
O=C(c1ccco1)N1CCN(C(=O)c2cnn3c2NC(c2cccs2)CC3C(F)(F)F)CC1 (configuration not stated)	-17%	-15%
O=C(OCc1ccc(Br)cc1F)c1cc2ccccc2oc1=O	-18%	0%
COC(=O)c1ccc(CNC(=O)COC(=O)CCC2CCCC2)cc1	-2%	-15%
COc1cccc(C(=O)CSc2nnc(CNS(C)(=O)=O)n2-c2ccc(C)cc2)c1	-3%	-3%
C=CCn1c2ccccc2c2nnc(SCc3[nH]c(=O)[nH]c3C(=O)CCCCC(=O)OCC)nc21	-7%	-11%
CC(C)(C)c1ccc(OCCCC(=O)Nc2cccc(S(=O)(=O)N3CCOCC3)c2)cc1	-19%	-22%
CC(=O)c1ccc(NC(=O)C(C)OC(=O)C2CC(=O)N(c3ccc4c(c3)OCCO4)C2)cc1 (configuration not stated)	-13%	0%
O=C1c2ccccc2C(=O)N1SC1CCCCC1	-10%	-13%
CCSc1ccc(-c2nn(-c3ccccc3)cc2/C=C(/C#N)C(=O)NCCCOC)cc1	1%	-5%
O=C(O)C/C(=C\c1ccc(N2CCOCC2)c([N+](=O)[O-])c1)c1nc2ccccc2s1	0%	-1%
Cc1ccc(S(=O)(=O)N2C[C@H]3C(=O)C[C@@H](c4ccccc4)N(S(C)(=O)=O)[C@H]3C[C@H]2c2ccccc2)cc1	-5%	13%

Arranged by molar mass (highest first): part of the list above
SMILES	VACV Venus inh	Vaccinia mCherry
C=C[C@@H]1c2c(F)cccc2N(S(=O)(=O)c2ccc(C)cc2)[C@H](c2ccc(OC(C)=O)cc2)C1(C#N)C#N	?	?
COc1ccccc1C(c1nnnn1CCc1ccccc1)N1CCN(c2ccccc2)CC1 (configuration not stated)	-12%	i
CN(C)CCNC(=O)c1onc(CSc2ccc(F)cc2)c1C(=O)NCCN(C)C	-10%	i
O=C(O)C/C(=C\c1ccc(N2CCOCC2)c([N+](=O)[O-])c1)c1nc2ccccc2s1	0%	-1%
CCOC(=O)c1ccc(S(=O)(=O)N2CCC(C(=O)Nc3nnc(C)o3)CC2)cc1	-13%	i
CCCc1nnc(SCC(=O)N2CCCC(C)C2)n1CCOC (configuration not stated)	2%	i
Cn1nc(C(=O)NNC(=O)c2ccc(Cl)cc2)ccc1=O	13%	i

(more compounds)
SMILES	VACV Venus inh	Vaccinia mCherry
O=[N+]([O-])c1nn(-c2ccc3c(c2)OCCO3)n(O)c1=NC1CCCC1	4%	-10%
COC(=O)C1=C(c2ccc(-c3ccccc3)c(F)c2)C[C@@H]2CC[C@H]1N2C(=O)N1CCC(O)CC1	?	?
O=C(Nc1cccc(S(=O)(=O)NC2=NCCC2)c1)c1ccc(C(F)(F)F)cc1	-18%	-9%
O=[N+]([O-])c1ccc2nc(NN=Cc3ccc(O)cc3)sc2c1	?	3.2µM*
CC1=CCC2C(=O)N(Cc3ccccc3)C(=O)C2C1 (configuration not stated)	-30%	-1%[1.46 µM]
CC1(C(=O)NS(=O)(=O)c2cccc(C#N)c2)CCN1C(=O)C1(c2ccccc2)CC1 (configuration not stated)	-4%	20%
Cc1ccc(C(OCC(C)(C)C[N+](C)(C)C)c2ccccc2)cc1 (configuration not stated)	-6%	i
O=C(c1ccc(Br)cc1)N1CCCc2ccccc21	-7%	-12%
COc1ccc(-c2nnc(NC(=O)C(C)C)s2)c(OC)c1	3%	-11%
c1ccn(CCc2ccncc2)c1	-2%	i
CC(=O)NC(Cc1ccc(C)cc1)C(=O)NC1CCN(C(=O)NCc2ccccc2)CC1 (configuration not stated)	-7%	-9%
COc1ccc(CCNc2nc(SCc3cccc(Cl)c3)nc3ccccc23)cc1OC	?	-27%
Cn1c(-c2ccc(C(=O)c3ccccc3)s2)nc2ccccc21	-4%	-12%
COc1cc(=O)n2c(c1C(=O)NC(C)c1ccco1)CCN(Cc1cc(C)cc(C)c1)CC2 (configuration not stated)	6%	-7%
CN(C)C(=O)CSc1nnc([C@H](Cc2c[nH]c3ccccc23)NC(=O)OC(C)(C)C)o1	-6%	i
O=C(OCc1ccc(COC(=O)c2ccc(O)cc2)cc1)c1ccc(O)cc1	-17%	i
COc1ccc([C@H]2C[C@@H](O)[C@H](n3cc(COC(=O)c4ccccc4)nn3)CN2C(=O)c2cccs2)cc1	-3%	i
Cc1ccc(CSc2nc3cccnc3n2Cc2ccc(C(=O)NCCc3ccccc3)cc2)cc1	-20%	-13%
Cc1cccc(C)c1NC(=O)c1ccc(CN2CCc3ccccc3C2)cc1	-17%	nt
Cc1ccc(NC(=O)Cn2c(=O)n(CCC(=O)N3CCc4ccccc4C3)c(=O)c3ccccc32)cc1	-12%	-13%
COc1ccc(-c2nc3c(C#N)c[nH]n3c2NC2CCCCC2)cc1	?	?
CCn1nc(C)cc1C(=O)NC1CCCc2c1cnn2-c1ccc(C)c(C)c1 (configuration not stated)	?	-29%
O=C(O)Cc1cn(Cc2ccc(F)cc2)c2ccccc12	-7%	i
CC1CCN(c2ccc(C(=O)NCc3ccc4c(c3)OCO4)cc2[N+](=O)[O-])CC1	-6%	-24%
O=S(=O)(c1cc(Cl)ccc1Cl)N1CCN(Cc2ccco2)CC1	-10%	-14%
CCCCCSc1nc2sc3c(c2c(=O)n1-c1ccc(OC)cc1)CCN(C(C)=O)C3	-27%	-24%
CC(C)(C)NS(=O)(=O)c1cc(C(=O)O)ccc1Cl	-4%	i
CCCC(=O)N1CCCC1(C)C(=O)Nc1ccc2cn[nH]c2c1 (configuration not stated)	-14%	-13%
Cc1ccccc1OCCN1C(=O)c2ccccc2C1=O	-8%	i
COCCNC(=O)CCSc1nc(-c2ccc(OC)cc2)cc(C(F)(F)F)n1	-6%&-15%	-10%&-28%
CC(C)CC(=O)N=C1SC2CS(=O)(=O)CC2N1Cc1ccccc1 (configuration not stated)	-12%	i
O=c1o[nH]c(-c2ccccc2)c1-c1ccccc1	10%	i
COc1ccccc1CC(=O)NNC(=O)c1ccco1	2%	-6%
Cn1c2ccc(CC(=O)O)cc2c2cc(CC(=O)O)ccc21	-3%	-13%
Cc1ccc(S(=O)(=O)N2CCCOC2CNC(=O)C(=O)NCCc2ccco2)cc1 (configuration not stated)	-19%	-2%
Fc1ccc(-c2cc(C(F)(F)F)nc(NCC3CCCO3)n2)cc1 (configuration not stated)	-24%	nt
COc1ccc(S(=O)(=O)N2CCN(C3CC4CCC3C4)CC2)cc1 (configuration not stated)	0%	-9%
CC1(C)CC(=O)C(N=Nc2cc3c(cc2[N+](=O)[O-])OCCO3)=C(O)C1	-25%	-16%
CCCCN(C(=O)c1cc2ccccc2o1)c1c(N)n(CCC)c(=O)[nH]c1=O	5%	-2%
N#CCC(=O)Nc1ccc(C(=O)OCC(=O)c2ccc3c(c2)OCO3)cc1	-18%	?

Profiles from above:
COc1ccc(-c2nc3c(C#N)c[nH]n3c2NC2CCCCC2)cc1 is entered as VACV Venus inh: ?; Vaccinia mCherry: ?
CC(C)CC(=O)N=C1SC2CS(=O)(=O)CC2N1Cc1ccccc1 (configuration not stated) is entered as VACV Venus inh: -12%; Vaccinia mCherry: i

More results.
SMILES	VACV Venus inh	Vaccinia mCherry
CC(C)=CCC[C@H](C)C[C@@H]1Cc2[nH]c(=S)[nH]c(=O)c2[C@@H](c2ccc(F)cc2)O1	-11%	1%
CC(=O)N1c2ccc(S(=O)(=O)NCCc3cccc(C)c3)cc2CC1C (configuration not stated)	-12%	-6%
Cc1ccc(C)c(S(=O)(=O)N2C(=S)NC(=O)C2C(C)C)c1 (configuration not stated)	-16%	nt
CC(=O)Nc1ccc(Oc2ccc3nc(C)[nH]c3c2)cc1	-4%	nt
CC1CCCCC1NC(=O)Cn1nc(-c2ccccc2)ccc1=O (configuration not stated)	1%	-8%
Cc1[nH]c2ccccc2c1C(=O)CN1CCN(C/C=C/c2ccccc2)CC1	?	-36%
O=C(c1nc2ncccn2n1)N1CCN(c2ccccc2)CC1	-12%	nt
